Mtb H37Rv = M. tuberculosis H37Rv growth inhibitors, H37Rv strain (AID 1626); M. tuberculosis H37Rv growth inhibition; higher % means a stronger effect; inhibition, % at 10 µM; hits with a dose series show IC50 in µM; actives 0.95% (n = 220,000);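 active = confirmed in a dose series; inconclusive = inhibition above 80% but not taken into the dose series; inactive = below 80% or under 30% at every dose of the series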;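 note: bacteria incubated seven days before Alamar blue readout; 0% = bacteria only wells and 100% = bacteria with antibiotic wells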
RecA splice inh = blocks M. tuberculosis RecA intein splicing | actives 0.75% (n = 290,000) | inhibition, %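 (about 9 µM by stock and volumes)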 | P9WHJ3 | AID 2221 | cell-free RecA intein splicing, fluorescence; in the data active = inhibition above about 30%; inconclusive = no clear call, values can overlap the other calls;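 note: 0% = vehicle wells and 100% = reference inhibitor control wells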
Target sequence (P9WHJ3 whole entry, looked up, canonical isoform): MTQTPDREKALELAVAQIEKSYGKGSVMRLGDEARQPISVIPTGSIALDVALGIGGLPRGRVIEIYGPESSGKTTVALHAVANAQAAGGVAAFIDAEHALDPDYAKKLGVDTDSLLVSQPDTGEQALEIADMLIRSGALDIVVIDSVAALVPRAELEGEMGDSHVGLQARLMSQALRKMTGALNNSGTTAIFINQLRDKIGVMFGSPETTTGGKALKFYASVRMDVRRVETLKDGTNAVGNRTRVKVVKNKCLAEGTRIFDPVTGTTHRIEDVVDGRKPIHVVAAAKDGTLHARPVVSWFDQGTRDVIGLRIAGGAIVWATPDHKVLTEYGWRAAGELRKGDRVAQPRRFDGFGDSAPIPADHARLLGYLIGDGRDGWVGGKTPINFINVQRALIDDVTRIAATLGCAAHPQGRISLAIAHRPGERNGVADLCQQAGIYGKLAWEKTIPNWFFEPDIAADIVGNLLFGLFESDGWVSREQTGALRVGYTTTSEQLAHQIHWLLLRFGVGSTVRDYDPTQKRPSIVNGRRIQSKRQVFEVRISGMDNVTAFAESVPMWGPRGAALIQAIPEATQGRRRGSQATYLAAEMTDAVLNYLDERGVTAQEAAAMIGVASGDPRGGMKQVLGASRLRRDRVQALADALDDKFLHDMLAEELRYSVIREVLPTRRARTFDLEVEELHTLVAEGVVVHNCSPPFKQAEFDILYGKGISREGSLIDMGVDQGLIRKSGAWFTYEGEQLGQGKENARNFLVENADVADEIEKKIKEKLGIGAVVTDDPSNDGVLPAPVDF
YopH PTP inh = YopH (Yersinia) phosphatase inhibition | fluorescence Ex485/Em525 | inhibition, %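 (about 10 µM by stock and volumes)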 | actives 0.16% (n = 140,000) | AID 898;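 active = inhibition of 50% or more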;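 note: controls were vehicle for no effect and minimum signal wells for full effect; inactives centre near -20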
Arbovirus anti = arbovirus infection inhibition; arbovirus infection cell-based antiviral screen; inhibition, % at 10 µM; actives 0.37% (n = 200,000);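 active = inhibition from about 30%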;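 note: bluetongue infection of BSR cells; cell survival read as ATP light after 72 h; 0% = infected wells without compound and 100% = uninfected wells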
Mtb bLac sens = beta-lactam sensitization of Mtb H37Rv; M. tuberculosis H37Rv growth with meropenem, percent inhibition; hits of this screen are not shown here; inhibition, % at 25 µM; actives 0.27% (n = 330,000);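 active = about 74% or more and at least 40 points above the plate without the antibiotic, then above 30% in a dose series; inconclusive = first-round hits that could not be retested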;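 note: growth measured after seven days incubation then overnight dye step; 0% = bacteria only wells and 100% = bacteria with antibiotic; twin plates without the antibiotic show which effects depend on it; some results filed as inactive read as strong as hits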
Arbovirus anti repeat = second read-out of Arbovirus anti, no call of its own (marks repeat the call); inhibition, %; measured here: 10K subset replicate screen; many hits read low in the repeat;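 first of two repeat runs on a subset; 0% = infected and 100% = uninfected wells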
Numbers without * were called inactive; ? = inconclusive; . = no result given.

SMILES	Mtb H37Rv	RecA splice inh	YopH PTP inh	Arbovirus anti	Mtb bLac sens	others
N#Cc1nc(COc2ccc(F)cc2)oc1N1CCCCC1	17%	1.3	.	5	8
O=C1Nc2cc(Cl)c(Cl)cc2N(O)N1c1cc(Cl)cc(Cl)c1	-8%	3.0	-27	20	-8
O=C(COc1ccc(-n2cnnn2)cc1)NC(=O)NCc1ccccc1	17%	-0.5	-28	-1	2
Cc1cc(N2CCCCC2)ccc1C=C1C(=O)N(C)C(=S)N(C)C1=O	-8%	2.7	-20	9	7
COc1cccc(Cn2cnc3c(NS(=O)(=O)c4ccc(Cl)cc4Cl)c(C)c(C)cc32)c1	0%	4.1	-34	14	?
CCN(Cc1ccccc1)C(=O)c1cccc(OC2CCN(C(=O)C3CC3)CC2)c1	.	5.1	.	.	3
CCOC(=O)c1ccccc1NC(=O)CSc1nnc(COc2ccccc2C)n1C	1%	7.6	3	28	5
COc1ccc(N2CCN(C(c3cccs3)C(C)NS(=O)(=O)c3ccccc3)CC2)cc1 (stereo unspecified)	.	8.8	-28	18	-10
CN(c1ccccc1C(=O)Nc1ccccc1-c1ccccc1)S(C)(=O)=O	.	-1.5	.	.	-12
Cc1ccc(C)c(OCC(=O)Nc2ccc3c(c2)OCO3)c1	.	2.6	-21	-3	-3
COc1cccc(CN(C)C(=O)c2ccc(OCC(=O)Nc3cccc(C(F)(F)F)c3)c(OC)c2)c1	.	6.1	.	.	13
CC1=C(C(=O)OC(C)(C)C)C(c2ccc3ccccc3c2)NC(=O)N1C (stereo unspecified)	.	0.4	.	.	-4
O=C(CN1C(=O)C2CC=CCC2C1=O)N1CCN(c2ccc([N+](=O)[O-])cc2)CC1 (stereo unspecified)	-8%	0.7	.	.	-1
COc1ccc(Cc2nnc(NC(=O)c3ccco3)s2)cc1	-14%	3.2	11	7	-4
CCOCCCn1c(N)c(C(=O)Nc2sc3c(c2C(=O)OC)CCCC3)c2nc3ccccc3nc21	4%	-0.2	-22	-11	6
Cc1ccc(OCC(=O)N2CCCCCCC2)cc1C	.	3.2	.	.	-7
CCOc1ccc(NS(=O)(=O)c2ccc(C(=O)NCCN3CCOCC3)cc2)cc1	.	-2.0	.	.	5
CC1(C)NC(=O)N(CC(O)COc2cc3ccccc3cc2C(=O)N2CCCCC2)C1=O (stereo unspecified)	-2%	-1.5	-42	-4	-16
O=C(Nc1ccccc1)N(Cc1ccc(Cl)cc1)CC(O)C(F)(F)F (stereo unspecified)	-1%	0.8	7	5	-3
COC(=O)c1ccc(N/N=C/c2cc([N+](=O)[O-])cc(OC)c2O)cc1	?	-2.0	.	-18	-4
CCOc1ccc(NC(=O)CSc2nnc(-c3ccccn3)n2C)cc1	73%	-1.6	-4	6	84
C/C(=N\NC(=O)CNc1ccc(F)cc1)c1cc2ccccc2o1	2%	1.4	.	-8	3
COc1ccc(CC(=O)NNS(=O)(=O)c2ccc(F)cc2)cc1OC	2%	-2.9	.	-2	-8
CCC(C)NC(=O)C1CCN(S(=O)(=O)N2CCOCC2)CC1 (stereo unspecified)	0%	-5.1	.	6	2
CC12C(=O)N(c3ccc(OC(=O)c4ccco4)cc3)C(=O)C1C1c3ccccc3C2c2ccccc21 (stereo unspecified)	3%	-1.7	-30	8	0
CCCC1S/C(=N/N=C/c2ccc(C)cc2)N(Cc2ccc(OC)cc2)C1=O (stereo unspecified)	-9%	-3.2	23	11	10
COc1ccccc1-c1ccc(SCc2ccc(F)cc2)nn1	-4%	2.3	.	23	-5
C/C(=N\O)c1ccc2c(c1)CC(C)O2 (stereo unspecified)	-2%	-0.7	.	.	9
Cc1cccc(-c2noc(CNC(=O)COc3ccccc3C)n2)c1	.	3.9	.	.	-2
Cc1cc2c(cc1S(=O)(=O)NCC(C)c1ccccc1)n(C)c(=O)c(=O)n2C (stereo unspecified)	.	0.3	.	.	?
CSc1nsc(SCC(=O)Nc2ccc(C(=O)O)cc2)n1	.	-3.3	.	.	6
CCn1cc(C(=O)NC2CCCCCC2)c2cc(OC)c(OC)cc2c1=O	-4%	5.8	-25	-2	5	Arbovirus anti repeat=-2
O=C(CSc1nnc2ccccn12)NC(=O)NC1CCCC1	-7%	5.8	-34	6	1
CS(=O)(=O)c1ccc(C(=O)OCc2nnc(-c3ccc(Cl)cc3)o2)cc1[N+](=O)[O-]	0%	67*	.	-27	-2
COc1ccc(S(=O)(=O)N2CCOCC2)cc1NC(=O)Cn1nnc2ccccc2c1=O	5%	0.3	.	2	-9
O=C(Nc1ccc2c(c1)C(=O)N(CC1CCCO1)C2=O)c1ccc(Cl)c(Cl)c1 (stereo unspecified)	.	2.0	-15	2	0
CCC(C)NC(=O)CSC1=Nc2ccccc2C2=NC(c3ccccc3)C(=O)N12 (stereo unspecified)	-3%	-1.4	-6	2	6
Cc1cc(C)n2nc(SCc3nnc(SCc4ccccc4)s3)nc2n1	22%	-2.5	-31	7	5
CCOC(=O)COn1c(=O)c(-c2ccc(Br)cc2)[n+]([O-])c2ccccc21	.	-4.7	.	.	4
CC1CCCN(c2nc3ccccc3nc2C(C#N)C(=O)OC2CCCCC2)C1 (stereo unspecified)	0%	.	-50	-13	.
N#Cc1nc(-c2ccccc2F)oc1N1CCCCC1	.	-0.6	.	.	-4
OCCC1CN(Cc2cnc(-c3ccccc3)s2)CCN1Cc1ccccc1 (stereo unspecified)	5%	.	.	2	-7
CN(C)CCNc1nc2sc3c(c2c(=O)n1-c1ccc(F)cc1)CCCCC3	-10%	0.2	.	.	-6
CCS(=O)(=O)N1CCC(c2nc3ccccc3[nH]2)CC1	.	1.9	.	.	-7
CC(C)CCNC(=O)C1CCN(S(=O)(=O)c2ccc(-n3cnnn3)cc2)CC1	.	-0.3	.	.	1
CCN(CC)C(=O)C1CCCN(Cc2ccccc2F)C1 (stereo unspecified)	?	-0.4	-34	-2	-18
Cc1nc(N)nc(C)c1Cc1ccccc1	-4%	0.2	5	0	-7
Cc1ccc(N(CC(=O)N2CCN(C3CCCCC3)CC2)S(=O)(=O)c2cccnc2)cc1	-10%	.	-4	-1	5
O=C(CNC(=O)c1ccccc1)NCc1ccc(Cl)cc1	2%	1.0	.	-1	2
Oc1ccccc1C1Nc2cccc3cccc(c23)N1	4%	15	-37	-1	-6
COc1ccc(OC)c(C2C(C(=O)c3ccc(C)o3)=C(O)C(=O)N2CCCN2CCOCC2)c1 (stereo unspecified)	.	.	4	.	-7
CCOc1cc(/C=C2/C(=N)N3OC(C)=CC3=NC2=O)ccc1OC	0%	-1.7	.	-12	2
Cc1cccc(CS(=O)(=O)c2ncc(Cl)c(C(=O)Nc3ccc(F)cc3)n2)c1	.	32*	.	.	3
O=C(CCC1CCCCC1)NCCN1C2=NC[C@H](Cc3ccccc3)N2C[C@H]1Cc1ccc(O)cc1	10%	2.1	.	17	80
COc1ccc(C)cc1NC(=O)c1cc2c(=O)n3ccccc3nc2n1C	2%	-39	.	5	-4
Cc1cnc(Nc2nc3ccccc3o2)nc1C(=O)Nc1cccc(C(F)(F)F)c1	52%	0.6	-16	-12	62
O=C(COc1ccc(Br)cc1)NCCCNC(=O)c1cccnc1	.	-0.2	.	.	-12
CCOC(=O)C1=C(C)NC(SCC(N)=O)=C(C#N)C1c1ccccc1 (stereo unspecified)	1%	-0.7	-34	-6	5
CC(C)n1c(SCC(=O)NC2CC2)nnc1C1CC1	.	-0.8	.	.	-8
COc1cccc(N2CCN(C3CC(=O)N(c4ccc(Cl)cc4)C3=O)CC2)c1 (stereo unspecified)	-1%	1.3	-33	12	4	Arbovirus anti repeat=5

Reprinted at random: 4 compounds from above.
SMILES	Mtb H37Rv	RecA splice inh	YopH PTP inh	Arbovirus anti	Mtb bLac sens	others
Oc1ccccc1C1Nc2cccc3cccc(c23)N1	4%	15	-37	-1	-6
CC(C)n1c(SCC(=O)NC2CC2)nnc1C1CC1	.	-0.8	.	.	-8
Cc1ccc(N(CC(=O)N2CCN(C3CCCCC3)CC2)S(=O)(=O)c2cccnc2)cc1	-10%	.	-4	-1	5
O=C(COc1ccc(Br)cc1)NCCCNC(=O)c1cccnc1	.	-0.2	.	.	-12

Other structures follow.
SMILES	Mtb H37Rv	RecA splice inh	YopH PTP inh	Arbovirus anti	Mtb bLac sens	others
COc1ccc(/C=C/C2=NN(C)C(=O)CC2)cc1	-2%	.	.	-5	-13
COc1ccc(NC(=O)/C(C#N)=C/c2ccc(-c3ccc(Cl)c(C(=O)O)c3)o2)cc1	.	2.2	.	.	2
COc1ccc(C)cc1C1=Nc2ccccc2C1(C)C	1%	2.8	-17	-2	-2
O=S(=O)(/N=C(/c1ccccc1)N1CCCCCC1)c1ccccc1	-3%	0.3	.	-1	-10
CCOC(=O)C1CCCCN1Cc1cn(C)nc1-c1ccccc1F (stereo unspecified)	-5%	1.2	.	.	-6
CCCn1c(=O)c(C(=O)NCC2CCCO2)c(O)c2ccccc21 (stereo unspecified)	-17%	5.7	.	7	-2
CN(C)S(=O)(=O)c1ccc(-c2csc(N/N=C/c3ccco3)n2)cc1	.	0.0	.	.	1
CCn1c(SCC(=O)c2cc(OC)ccc2OC)nnc1C1CC1	0%	-3.4	-34	.	-7
Cc1cc(C)n(CCc2nc(-c3cc4ccccc4o3)cs2)n1	.	-1.2	-7	12	-14
CCCc1nc2c(s1)CCc1onc(-c3ccc(Cl)cc3)c1-2	.	4.6	.	.	47
COc1ccc(C2(c3ccc(O)cc3O)CC(c3ccccc3Cl)NC(=S)N2)cc1 (stereo unspecified)	1%	10	.	-11	2
Cc1ccc(C(=O)Nc2c(N)nc(SCC(=O)Nc3cc(C)on3)[nH]c2=O)cc1	.	-0.7	.	.	-18
Cc1ncc(CN2CCCC(C(=O)c3ccc(C(C)(C)C)cc3)C2)s1 (stereo unspecified)	21%	4.0	.	-3	48
Cc1ccc(OCc2ccc(C#N)cc2)c(C(=O)c2cc(C#N)c(=O)n(C3CC3)c2)c1	1%	6.3	-28	-5	-3
O=C(/C=C/c1ccccc1)c1ccc2c(c1)OCCCCO2	-13%	8.0	-25	-39	90
O=C(CC1SC(=NCC2CCCO2)NC1=O)Nc1cccc2ccccc12 (stereo unspecified)	-2%	2.1	-17	1	0
C=CCNC(=O)CSc1nc2sc3c(c2c(=O)n1CCCOC)CCC3	.	0.1	.	.	0
CCc1nc(-c2ccccc2)c2ccccn12	4%	-12	.	-4	0
COc1ccc(C(=O)/C=C/Nc2ccc([N+](=O)[O-])cc2)cc1	8%	-2.0	-6	-3	2
O=C(CNC(=O)c1cccs1)NCC(=O)OCc1c(F)cccc1Cl	4%	-1.7	.	1	-1

5 successive compounds already listed, quoted:
SMILES	Mtb H37Rv	RecA splice inh	YopH PTP inh	Arbovirus anti	Mtb bLac sens	others
COc1ccc(/C=C/C2=NN(C)C(=O)CC2)cc1	-2%	.	.	-5	-13
COc1ccc(NC(=O)/C(C#N)=C/c2ccc(-c3ccc(Cl)c(C(=O)O)c3)o2)cc1	.	2.2	.	.	2
COc1ccc(C)cc1C1=Nc2ccccc2C1(C)C	1%	2.8	-17	-2	-2
O=S(=O)(/N=C(/c1ccccc1)N1CCCCCC1)c1ccccc1	-3%	0.3	.	-1	-10
CCOC(=O)C1CCCCN1Cc1cn(C)nc1-c1ccccc1F (stereo unspecified)	-5%	1.2	.	.	-6

The listing continues.
SMILES	Mtb H37Rv	RecA splice inh	YopH PTP inh	Arbovirus anti	Mtb bLac sens	others
CC1(C)C2CCC(C2)C1(C)NC(=O)C[N+](C)(C)C (stereo unspecified)	-6%	1.5	.	.	-5
Cc1ccccc1C(=O)NC(NCC1CCCO1)C(Cl)(Cl)Cl (stereo unspecified)	-6%	-2.9	-26	0	-12
O=C(Nc1c(F)c(F)c(F)c(F)c1F)C1CCCCC1	-2%	-0.3	4	8	1	Arbovirus anti repeat=8
O=C(NCc1ccccc1Cl)C1CCCN(C(=O)Nc2ccc(F)cc2)C1 (stereo unspecified)	.	2.5	.	.	4
CCN1CCN(S(=O)(=O)c2ccc(OC)cc2)CC1	.	-4.3	.	.	-1
O=C(CN1C(=O)NC2(CCCCCC2)C1=O)c1ccc2c(c1)OCCO2	6%	-1.3	-30	3	-8
CC(C)CCN1CCN(CCCc2ccccc2)CC1CCO (stereo unspecified)	.	-1.0	.	.	-12
CCC(C)(C)n1nnnc1C(c1cc(OC)ccc1OC)N1CCN(Cc2ccccc2)CC1 (stereo unspecified)	0%	1.3	.	4	-9
CC1(C)CC(=O)C(C2(O)C(=O)Nc3ccccc32)CO1 (stereo unspecified)	-5%	-0.6	.	0	-2
NS(=O)(=O)c1ccc(CNC(=O)c2ccc(Br)o2)cc1	-9%	0.4	10	0	-14

Bioassay records deposited in PubChem BioAssay by several laboratories.

A portion of the library. The share of hits here may be higher or lower than overall.
